NPYLR7 agonist: agonists of mosquito NPYLR7 receptor, primary screen, cell-based, Aedes aegypti, calcium fluorescence, mosquito biting behavior. Aedes aegypti neuropeptide Y-like receptor 7 (NPYLR7). HEK293T NPYLR7/Galpha15, GCaMP6s calcium fluorescence. activation, % at 10 µM. 270,000 tested, 0.15% active. AID 1259423, 2018; in the data active means activation above about 40%;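 further: 0% = vehicle and 100% = reference agonist at the receptor; some compounds past the cut are filed as inactive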
NPYLR7 agonist max-min: recorded beside NPYLR7 agonist, whose call it bears; activation, %; measured here: Max-Min RFU normalised activation; some inactives read as strong as hits;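 span of the calcium signal over five minutes; 0% = vehicle and 100% = native peptide agonist; compound fluorescence can raise it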
Numbers without * were called inactive; & = joins results of further samples.

SMILES | NPYLR7 agonist | NPYLR7 agonist max-min
Cc1cccc(NC(=O)CSc2nnc(CNC(=O)c3cccs3)n2-c2ccc(Br)cc2)c1 | -8 | -7
COc1cc(Cl)ccc1NC(=O)Cn1cnc([N+](=O)[O-])n1 | -8 | -13
CS(=O)(=O)c1ccccc1N1CCC(Oc2ccncc2)C1 (stereo unspecified) | -1 | -1
O=C(Nc1ncn[nH]1)c1ccc(SC(F)(F)F)cc1 | -8 | -12
COc1ccc(OC2CCN(C3CCCC3)CC2)c(C(=O)N(C)CCc2cnn(C)c2)c1 | 1 | -1
Cc1ccc(C2Nc3ccccc3N=C3CC(c4ccc(Cl)cc4)CC(=O)C32)cc1[N+](=O)[O-] (stereo unspecified) | -8 | -4
Cc1ccc(-c2nnc3ccc(SCC(=O)Nc4nc5ccccc5s4)nn23)cc1 | 14 | 17
COc1ccc(CCC(=O)Nn2c(=O)oc3cc4ccccc4cc3c2=O)cc1 | 12 | 4
CCc1nn2c(nnc3c(=O)n(NC(=O)COC)ccc32)c1-c1ccc(Cl)cc1 | -1 | -3
NCC1CCN(Cc2ccc(C#CCO)cc2)C1 (stereo unspecified) | 5 | 3
Cc1c(C(=O)NCc2ccc(C(F)(F)F)cc2)sc(=O)n1Cc1ccc(F)cc1 | -7 | -7
COc1ccc(OC)c(-c2cccc(-c3cccc(NC(=O)c4cccc(Cl)c4)c3)n2)c1 | 22 | 24
COc1ccccc1CN(C)C(=O)c1ccc[nH]c1=O | 1 | 2
CC(C)c1cc(N2CCCCC2C)nc(SCc2cccc(C(=O)O)c2)n1 (stereo unspecified) | 19 | 18
Cc1csc2nc(O)c(C(=O)NCCCc3ccccc3)c(=O)n12 | -1 | 51

The closing 3 records of the section above open the next one.
SMILES | NPYLR7 agonist | NPYLR7 agonist max-min
COc1ccccc1CN(C)C(=O)c1ccc[nH]c1=O | 1 | 2
CC(C)c1cc(N2CCCCC2C)nc(SCc2cccc(C(=O)O)c2)n1 (stereo unspecified) | 19 | 18
Cc1csc2nc(O)c(C(=O)NCCCc3ccccc3)c(=O)n12 | -1 | 51
CCOc1ccc(-c2nc(NCCC(c3ccccc3)c3ccccc3)c3ccccc3n2)cc1 | 2 | -7
Cc1noc(C)c1C(=O)N(C)Cc1nc(C2=CCCN(C)C2)no1 | 18 | 4
Cc1noc(C)c1CSc1ncccc1C(=O)NCC1(N(C)C)CCCC1 | 4 | 3
O=C1OC(c2ccccc2)OC(=O)C1=Cc1ccc(OCc2ccc3c(c2)OCO3)cc1 (stereo unspecified) | 2 | 6
Cn1c(C(=O)N2CCC(CCC(=O)NCc3cccnc3)CC2)cc2ccccc21 | 1 | -7
COc1ccc(-n2cc(CNC3CCN(C)CC3)c(-c3cccc(F)c3)n2)cc1 | 2 | -2
N#CCNC(=O)C1(c2ccccc2)CCN(C(=O)c2ccc(-n3cccc3)nc2)CC1 | 13 | 2
NS(=O)(=O)c1ccc(CCNC(=O)c2ccc(S(=O)(=O)NCC3CCCO3)cc2)cc1 (stereo unspecified) | -2 | -7
Cc1cc(C)nc(Nc2nc(C)c3ccccc3n2)n1 | 5 | 3
Fc1ccccc1OCCSc1ncnc2nc[nH]c12 | 1 | 7
COc1ccc(C2CC2C(=O)N2CCC(O)(c3ccccc3C)CC2)cc1 (stereo unspecified) | -7 | -6
Cc1nnc2sc(NC(=O)CC(C)C)nn12 | 1 | 1
CC(C)(C(=O)Nc1cnn(CC(F)F)c1)c1ccc(F)cc1 | 6 | 5
CS(=O)(=O)c1ccc(S(=O)CC(=O)Oc2ccc(C3CCCCC3)cc2)c([N+](=O)[O-])c1 (stereo unspecified) | 2 | 5
Cc1c(Cl)cccc1-n1ccn(CC(N)=O)c(=O)c1=O | 12 | 9
CCCCn1nnnc1COC(=O)CN1C(=O)NC2(CCCCC2C)C1=O (stereo unspecified) | 5 | 14
Cc1nc(CC(=O)N2CCC(=O)N(CC3CC3)C(C(C)C)C2)cs1 (stereo unspecified) | 0 | -3
CCN1CCN(C(=O)c2c(C)nn(-c3ccccc3C)c2C)CC1 | -7 | 1
CCOCCn1cc(C2CCN(C(=O)COCCOC)CC2)c2ccccc21 | -2 | -2
COc1cccc(OC)c1C(=O)N1C(C(=O)NC2CC2)COC12CCCCC2 (stereo unspecified) | -4 | 8
O=C(CN1CCCc2cc(C(F)(F)F)ccc21)NC1CCS(=O)(=O)C1 (stereo unspecified) | 5 | 2
CC1(C(=O)N2CCCCC2)CCN1C(=O)CC(c1ccccc1)c1ccccc1 (stereo unspecified) | -3 | -4
CCn1cc(C#N)c(=O)n(CC(=O)N(C)Cc2c(F)cccc2Cl)c1=O | 7 | 4
CC1=CC(C)C2(COC(CCc3ccccc3)OC2)C(C)C1 (stereo unspecified) | 4 | 3
Cc1ccc(C(=O)N(C)Cc2ccsc2)cc1NC(=O)c1ccco1 | 2 | 1
C=CCc1cccc(C2N(C)c3ccccc3N2C)c1O | -11 | -22
CN(C)CCCN(Cc1ccc(Cl)c(Cl)c1)C(=O)Nc1nncs1 | -2 | -3
O=S(=O)(NC(Cc1ccccc1)c1nnc(SCc2ccc(F)cc2)n1-c1ccc(Cl)cc1Cl)c1ccc(F)cc1 (stereo unspecified) | 4 | 7
Cc1cc(NS(=O)(=O)c2sc(C)nc2C)n(C)n1 | -1 | 1
CCCNC(=O)c1cc(-c2cccc(OC)c2)nc2cc(C(C)(C)C)nn12 | 6 | 9
O=C(CN1C(=O)C2CCCCC2C1=O)Nc1ccc(-c2nccs2)cc1 (stereo unspecified) | -2 | 7
NS(=O)(=O)c1ccc(Cn2ccnc2C2CCOC2)cc1 (stereo unspecified) | 2 | -1
Cc1cnc(NC(=O)CCNS(=O)(=O)c2ccccc2Br)s1 | 4 | 3
COC(=O)c1ccc(-c2noc(CN3CCN(C4CCc5ccccc5C4)CC3)n2)cc1 (stereo unspecified) | 14 | 5
CN(C(=O)Cc1csc2nc(-c3ccccc3)cn12)C1CCCCC1 | 2 | 0
C=CCCC(O)CN(CC=C)CC(=O)N1CCc2sccc2C1COc1ccc(C)cc1C (stereo unspecified) | -4 | -4
O=C(Cc1cc2c(cc1Cl)OCCO2)N1CCc2c(nc[nH]c2=O)C1 | 5 | 1
CCC(C)NC(=O)CCc1csc(NC(=O)c2ccc[nH]c2=O)n1 (stereo unspecified) | -10 | -11
O=C(NCC1(O)CCCNCC1)c1ccccc1-c1ccccc1 (stereo unspecified) | 20 | 15
COc1cccc(CN(Cc2ccco2)CC(O)COc2ccccc2)c1OC (stereo unspecified) | 16 | 16
C=CCN(CC(=O)N(CCc1ccc(OC)c(OC)c1)Cc1ccc(C)o1)S(=O)(=O)c1ccccc1 | 2 | -6
O=C(c1cccc(Cl)c1)N1CCCC(CO)(CCc2ccccc2)C1 (stereo unspecified) | 3 | 0
Cc1cccc(CN2CCC(C(=O)Nc3cccc(-c4cccc(F)c4)c3)CC2)n1 | 1&8 | -2&4
O=C(NCc1ccccn1)c1cc2n(n1)CCN(Cc1cccc(C(F)(F)F)c1)C2=O | 18 | 26
Cc1cc(OCC2CN(C(=O)CCc3cccnc3)CCO2)ccc1Cl (stereo unspecified) | 25 | 21
COc1cccc(-c2nc3ccccn3c2NC(=O)C2CCCCC2)c1 | -11 | -10
Cc1cccc(-c2c(-c3ccccc3)ncn2C(CO)CO)n1 | 1 | -2
O=C(CCC1CCN(Cc2cccc3ncccc23)CC1)N1CCN(c2ccccc2)CC1 | 18 | 5
COCC(C)NC(=O)c1cccc2c(=O)c(C)c(-c3ccccc3)oc12 (stereo unspecified) | -1 | -4
CCc1cn[nH]c1C1CCN(C(=O)c2cccc(C#CC(C)(C)O)c2)CC1 | -1 | -2
CC=Cc1ccc(OCC(O)CN2C(=O)NC(C)(C3CCCCC3)C2=O)c(OC)c1 (stereo unspecified) | -1 | 7
CCCCOC(=O)N1CC(=O)N(CCOc2ccccc2)CC(O)C1 (stereo unspecified) | 2 | 7
N#Cc1ccc(C(=O)N(CCN2CCOCC2)c2nc3c(F)cc(F)cc3s2)cc1 | 9 | 2
COC(=O)c1nn(-c2ccc(OC)cc2)c(=O)c2c(NC(C)=O)sc(C)c12 | 5 | 5
CN(Cc1ccccc1O)C(=O)CCCn1ccnc1 | 7 | 4
Cc1noc(C)c1CC(=O)NCc1ccc2[nH]c(-c3ccccc3F)c(C)c2c1 | 5 | -3
Cc1ccccc1C(=O)Nc1sc2c(c1C(=O)N1CCCCCC1)CCCC2 | 6 | 4
COCCn1c(SCC(=O)Nc2ccc(F)cc2F)nc2c([nH]c3ccccc32)c1=O | -2 | -2
O=C(O)c1cc2nc(C3CC3)cc(C(F)(F)F)n2n1 | 2 | 1
COc1ccccc1N1CCN(C2CCCN(Cc3cccc(-n4cccn4)c3)C2)CC1 (stereo unspecified) | -2 | -11

Single records, as listed above.
O=C(NCC1(O)CCCNCC1)c1ccccc1-c1ccccc1 (stereo unspecified) reads NPYLR7 agonist: 20; NPYLR7 agonist max-min: 15
COc1ccc(-n2cc(CNC3CCN(C)CC3)c(-c3cccc(F)c3)n2)cc1 reads NPYLR7 agonist: 2; NPYLR7 agonist max-min: -2

Going on with the list:
SMILES | NPYLR7 agonist | NPYLR7 agonist max-min
O=C(Nc1ccnn1C1CCN(CCCC2CCCC2)CC1)C1CC1 | -5 | -8
Cc1nc(SCC(=O)Nc2sc3c(c2C#N)CCCC3)c2c3c(sc2n1)CCC3 | -8 | -12
O=C(CSc1nc2c(-c3ccccc3)c[nH]c2c(=O)n1C1CC1)NCc1ccc(F)cc1 | 1 | -4
Oc1cccc(C2c3cccn3CCCN2Cc2ccc(Cl)cc2)c1 (stereo unspecified) | 26 | 30
CCCCN1C(=O)CCC(C(=O)Nc2ccc(N3CCC(CO)CC3)cn2)C1c1ccccc1OC (stereo unspecified) | 0 | 6
CC(=O)NCCn1ccnc1-c1ccc(-n2cccn2)cc1 | -1 | -5
CC(C)c1nc2oc3ccccc3c(=O)c2c(=O)n1CCc1ccccc1 | 3 | -1
CC(=O)c1cc(F)ccc1OC(C)C(=O)NC(=O)NCc1ccccc1 (stereo unspecified) | -1 | -1
Cc1ccc(C=C2SC(N3CCCCC3)=NC2=O)o1 | -5 | -5
CCc1nc2n(n1)C(=O)C(C(c1cccc(Br)c1)N1CCC(C(N)=O)CC1)S2 (stereo unspecified) | -2 | 7
O=[N+]([O-])c1ccn(Cc2cccc(Cl)c2)n1 | -3 | -6
c1c(CNC2CCC3(CCNCC3)CC2)nc2n1CCS2 | 6 | 5
CN(C)S(=O)(=O)c1ccc(C(=O)Nn2cnc3c(cnn3-c3ccccc3)c2=O)cc1 | 0 | -3
COC(=O)c1ccc(C(=O)N(CCCN(C)C)c2nc3ccc(C)cc3s2)cc1 | 5 | 5
C[C@H](O)C(=O)C1=Nc2c(nc(N)[nH]c2=O)NC1 | 49 | 12
CCOC(=O)c1c(NC(=O)CSc2nc3sc4c(c3c(=O)n2CC)CCC4)sc(C)c1C | 3 | 0
CC1(C(=O)Nc2ccccc2Cc2ccccc2)CCN1Cc1ccccc1Cl (stereo unspecified) | -1 | -4
CC(C)(C)c1ccc(NC(=O)Cn2ccnc2)cc1 | 7 | 3
O=C(Nc1cccc(C(F)(F)F)c1)c1ccc(N2CC3CC(C2)c2cccc(=O)n2C3)c(NC(=O)c2ccccc2)c1 (stereo unspecified) | -7 | -1
Cc1c(-c2ccccc2)sc(NC(=O)CSc2n[nH]c(C3CC3)n2)c1C(=O)N1CCCCC1 | 7 | 2
CCn1nnc2c(Nc3cccc4ccccc34)ncnc21 | 6 | 13
C=CCOc1ccc(Cl)cc1-c1noc(-c2csc([C@@H]3C[C@H](O)[C@@H](CO)O3)n2)n1 | 1 | -1
COc1ccc(NC(=O)N2CCC3(CC2)C(=O)N(CC(=O)NCc2cccc(C(F)(F)F)c2)CN3c2ccccc2)cc1 | 10 | 10
O=C(Nc1ccc(I)cc1)c1ccc(=O)n(CCOc2ccccc2)n1 | -5 | -3
COc1ccc2c3n(c(=NC(=O)c4cccnc4)nc2c1OC)CCN3 | -8 | -16
CC(C)n1c(COc2ccc(C(C)(C)C)cc2)n[nH]c1=S | 8 | 13
CS(=O)(=O)c1cccc(NC(=O)c2ccccc2Br)c1 | 9 | 9
O=C1COc2ccccc2N1CCc1n[nH]c(CCc2ccccc2)n1 | 25 | 13
COc1ccc(-c2nnc(SCC(=O)N3CCOCC3)n2C2CCCCC2)cc1 | 1 | 8
CN(C)CC1(O)CCCN(S(=O)(=O)N(C)Cc2ccccc2)CC1 (stereo unspecified) | 6 | 3

Four of the compounds above, as tab-separated lines:
compound	NPYLR7 agonist	NPYLR7 agonist max-min
Cc1c(-c2ccccc2)sc(NC(=O)CSc2n[nH]c(C3CC3)n2)c1C(=O)N1CCCCC1	7	2
CCn1nnc2c(Nc3cccc4ccccc34)ncnc21	6	13
C=CCOc1ccc(Cl)cc1-c1noc(-c2csc([C@@H]3C[C@H](O)[C@@H](CO)O3)n2)n1	1	-1
COc1ccc(NC(=O)N2CCC3(CC2)C(=O)N(CC(=O)NCc2cccc(C(F)(F)F)c2)CN3c2ccccc2)cc1	10	10

More structures follow:
SMILES | NPYLR7 agonist | NPYLR7 agonist max-min
O=C(CSc1nc2c(c(=O)n1-c1ccccc1)SCC2)NCCc1ccccc1 | 0 | -2
COc1ccccc1NC(=O)Cn1ncn2nc(-c3ccc(C)cc3)cc2c1=O | -8 | -13
Cn1c(-c2ccccc2)nn(CN2CCCCC2)c1=S | 4 | 4
CCn1nnc2c(Nc3cccc(C)c3C)ncnc21 | 6 | 11
CCOc1ccccc1N=Cc1c(C)c(C#N)c2[nH]c3ccccc3n2c1=O | 9&-1 | 3&-2

Not all compounds are listed; the hit share may differ from the screen's.
